# Mtb growth – Mycobacterium tuberculosis H37Rv growth inhibition, cell based, confirmatory dose response (AID 1949) | inhibition, % at 10 µg/mL, or IC50 in µg/mL where a hit was titrated | most inactive calls were filed without a number and no value below 0 was filed | 100,000 tested, 1.6% active;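 active = confirmed in a dose series; inconclusive = about 50% or more but not retested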;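 also: bacteria grown 7 days with compound before Alamar blue readout; 0% = untreated bacteria and 100% = reference antibiotic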
# Active calls of the source: *; i = inactive; u = inconclusive. An excerpt. The share of hits here may be higher or lower than overall.
Structure,Mtb growth
CCCCCc1nnc(NC(=O)C(CC)c2ccccc2)s1 (stereo not drawn),i
Cc1ccc(S(=O)(=O)N2CCN(CC(=O)Nc3cc(Cl)ccc3Cl)CC2)c(C)c1,i
CCOc1ccc(CNCc2cccs2)cc1,i
COc1ccccc1C(=O)NC(=S)Nc1ccccc1-c1nc2ccccc2s1,i
COc1ccc([N+](=O)[O-])cc1NC(=O)c1cncc(Br)c1,i
c1ccc(NCc2ccc3c(c2)OCO3)nc1,i
CS(=O)(=O)Nc1ccc2c(c1)COC2=O,i
CC12CN3CC(C)(C1=O)C(=O)C(C)(C3)C2=O,i
CC1CN(c2ccc([N+](=O)[O-])cc2)CCN1S(=O)(=O)c1ccc(Cl)c(Cl)c1 (stereo not drawn),0.4%
CCOc1cc(CO)c(Br)cc1OCc1ccc(Cl)c(Cl)c1,30.0%
COC(=O)CSc1nnc(-c2cccs2)n1-c1ccc(OC)cc1,i
CC(=O)c1ccc(NC(=O)Nc2ccc(C)cc2OC(F)F)cc1,i
CCOc1cc(CO)ccc1OCC(=O)Nc1ccc(F)cc1,i
COC(=O)C1CCN(C(=O)Cc2ccc(C)cc2)CC1,i
COc1ccc(CNc2ccccn2)c(O)c1,i
CCN1CCN(C(=O)c2c(F)cccc2F)CC1,i
O=C(Nc1ccc(Br)c2cccnc12)c1ccc(Cn2cc(Cl)cn2)o1,0.7%
CC(C)c1ccc(C(=O)N2CCc3ccccc3C2)cc1,i
COC(=O)c1ccc(N2C(=O)CC(NCc3ccc(Cl)cc3)C2=O)cc1 (stereo not drawn),5.0%
Cc1ccccc1Cn1c(CCNC(=O)C(C)C)nc2ccccc21,i
CCN(CC)C(=O)C1=C(C)NC(=S)NC1c1ccc(Br)cc1 (stereo not drawn),i
COc1ccccc1C(=O)Nc1sc2c(c1C#N)CCCC2,i
CCOC(=O)Nc1ccc(OC)c(Cl)c1,i
CCn1ccc(C(=O)NC2CCCCC2)n1,i
Cc1ccc(NC(=O)CSc2nc3ncccc3[nH]2)c(C)c1,i
Cc1ccc(NC(=O)CCC(=O)Nc2ccc(C)c(Cl)c2)cc1Cl,i
CCCN(CC1CC1)C(=S)Nc1ccc(C(C)=O)cc1,i
COc1ccccc1NC(=O)C1=C(C)Nc2nnnn2C1c1ccccc1OC (stereo not drawn),i
Cc1cccc(OC(C)C(=O)Nc2ccccc2C(F)(F)F)c1C (stereo not drawn),i
Cc1ccccc1OCC(=O)Nc1ccc2oc(-c3ccccc3F)nc2c1,i
COc1ccc(S(=O)(=O)N(C)CC(=O)NCc2cccnc2)cc1OC,i
O=C(c1ccc2c(c1)OCCO2)c1cccs1,0.0%
CCCNC(=O)Nc1ccc2snnc2c1,i
CCC(C)NCCCCOc1ccc(Br)cc1 (stereo not drawn),2.8%
Cc1ccc(CN(c2ccc(C(=O)NCc3ccccc3C)cc2)S(C)(=O)=O)cc1,i
CCOC(=O)C1=C(C)N=C2SCC(=O)N2C1c1cccc(Br)c1 (stereo not drawn),i

# Three entries from above, with each value named.
CCC(C)NCCCCOc1ccc(Br)cc1 (stereo not drawn)
  Mtb growth = 2.8%

Cc1ccc(CN(c2ccc(C(=O)NCc3ccccc3C)cc2)S(C)(=O)=O)cc1
  Mtb growth = i

CCOC(=O)C1=C(C)N=C2SCC(=O)N2C1c1cccc(Br)c1 (stereo not drawn)
  Mtb growth = i

# (more compounds)
Structure,Mtb growth
CCc1ccccc1NC(=O)CSc1ncnc2sc(C)c(C)c12,i
CN(C)CCNC(=O)Nc1cccc(Cl)c1Cl,i
COc1ccc(C)cc1-n1nc2ccccc2n1,4.0%
C=CCNC(=O)CN(C1CCCCC1)S(=O)(=O)c1ccc(F)cc1,4.1%
CCOC(=O)c1sc(NC(=O)CSc2nnc(-c3sc4ccccc4c3Cl)o2)nc1C,i
CCc1cc(C(=O)OC)c(NC(=O)c2sc3cc(F)ccc3c2Cl)s1,i
O=C(O)c1cccc(NC(=O)C2CC(=O)N(Cc3ccccc3)C2)c1 (stereo not drawn),i
Cc1cccc(C(=O)Nc2nc3ccccc3[nH]2)c1,0.74µg/mL*
COc1ccc(CCNC(=O)Nc2cccc(C)c2)cc1OC,i
CCC(C)Cc1nc(N)c(C#N)c(-c2ccccc2OC)c1C (stereo not drawn),0.8%
COc1ccc(Br)cc1S(=O)(=O)N1CCN(c2ccc(F)cc2)CC1,i
CN(C)C(=O)c1ccc(NC(=O)CCc2ccccc2)cc1,i
COc1cc(C)c(S(=O)(=O)n2nc(C)cc2C)cc1C,i
O=C(c1cccc(F)c1)N1CCN(S(=O)(=O)c2ccc(Cl)cc2)CC1,8.5%
Cn1nnnc1SCC(=O)NCc1ccccc1,i
O=S(=O)(c1ccc(F)cc1)N1CCN(Cc2ccccn2)CC1,0.6%
O=C(NCc1ccccc1)c1cccnc1,i
NC(=O)Cn1nc(-c2ccc(Cl)cc2)c2ccccc2c1=O,i
CC(=O)c1ccc(OC(=O)COc2ccccc2Cl)cc1,2.2%
Cc1ccc(-c2oc3cc(Cl)ccc3c(=O)c2O)cc1,38.2%
Fc1ccc(NC(=S)N2CCc3ccccc32)cc1,i
CS(=O)(=O)NC12CC3CC(CC(C3)C1)C2,1.9%
CC(C)Cc1nc(SCC(=O)Nc2ccc3ccccc3c2)n[nH]1,i
Fc1cc(Br)ccc1NC(=S)NCCc1ccccc1,i
Cc1ccc(S(=O)(=O)Nc2ccc(C(=O)NC(C)c3ccccc3)cc2)cc1 (stereo not drawn),i
Cc1ccc(OCCCn2c(CO)nc3ccccc32)cc1,26.4%
CCOC(=O)C1CCN(C(=O)c2cc(C)cc(C)c2)CC1,i
Oc1ccccc1-c1n[nH]c(/C=C/c2ccc(Br)cc2)n1,3.27µg/mL*
CC(C)Cc1ccc2c(N)c(C(=O)Nc3ccccc3)sc2n1,i
Cc1ccccc1C(=O)NC(=S)Nc1cccc(NC(=O)C(C)C)c1,i
COc1ccc(C(=O)Oc2ccc(C(=O)OCc3ccccc3)cc2)cc1,47.7%
O=C(Oc1cc(=O)oc2ccccc12)c1ccc2c(c1)OCCO2,i
O=S(=O)(Cc1ccc(Cl)cc1)NCc1cccnc1,i
COCC(=O)NNC(=O)c1ccccc1C,i
COc1cccc(S(=O)(=O)Nc2ccc(C(=O)N3CCCCCC3)cc2)c1,i
CC(=O)c1sc2nc(-c3ccc4c(c3)OCCO4)cc(C(F)(F)F)c2c1N,i
CCOc1cc2c(cc1/C=C(\C#N)c1cccc(C(F)(F)F)c1)OCO2,i
Clc1ccc(Cn2ncc3c(N4CCCC4)ncnc32)cc1,u
O=C(NCCN1CCOCC1)c1cccc(S(=O)(=O)N2CCCCCC2)c1,i
CCCC(C)NC(=O)C1CN(S(=O)(=O)c2ccccc2)CCN1S(=O)(=O)c1ccccc1 (stereo not drawn),i
CC(=O)Nc1nc2ccc([N+](=O)[O-])cc2s1,i
COc1ccc(N(CC(=O)Nc2ccc(F)cc2F)S(C)(=O)=O)c(OC)c1,i
Cc1cc(C)cc(C(=O)NC2C3CC4CC(C3)CC2C4)c1 (stereo not drawn),i
O=C(CCC1CCCC1)Nc1cccc(Cc2ccncc2)c1,8.7%
O=C(Cn1cc(C(=O)c2cccs2)c2ccccc21)NCc1cccs1,i
CCCSc1ncc(Cl)c(C(=O)Nc2ccc(C(=O)OC)cc2)n1,i
CC(C)(C)c1nnc(NC(=O)CCCOc2ccc(Cl)cc2Cl)s1,0.9%
COc1cc(OC)c(NC(=O)Cc2cccs2)cc1Cl,i
COc1ccc(-c2noc(COc3ccc(Br)cc3)n2)cc1,0.2%
CCOC(=O)C1CCN(S(=O)(=O)c2cccc([N+](=O)[O-])c2)CC1,i
O=[N+]([O-])c1ccc(CSC2=NCCN2)cc1,i
COc1ccc(C)cc1NS(=O)(=O)CC(C)C,i
CCOc1ccc(NC(=O)CSc2nnc(Cc3ccccc3)n2-c2ccc(C)c(C)c2)cc1,i
O=C(NCc1cccnc1)C1CCN(Cc2ccccc2)CC1,i
CN(CC(=O)N1CCC(Cc2ccccc2)CC1)S(=O)(=O)c1ccc(Br)cc1,3.0%
CC(C)c1ccccc1NC(=O)CN(c1ccc(Oc2ccccc2)cc1)S(C)(=O)=O,i
COC(=O)c1c(NC(=O)c2ccccc2F)sc2c1CCC2,i
Cc1cccc(/C(N)=N/OC(=O)CSc2ccccc2)c1,i
Cc1ccc(S(=O)(=O)C(F)(F)F)cc1NC(=O)c1cccnc1,i
O=C(COc1ccc([N+](=O)[O-])cc1)NCCCN1CCOCC1,i

# (list continues)
Structure,Mtb growth
COc1ccc(CC(=O)Nc2ccc(C3(C#N)CCCC3)cc2)cc1,i
CCn1c2ccccc2c2cc(NC(=O)C(=O)N3CCOCC3)ccc21,u
CN(C)c1ccc(-n2c(CCC(=O)O)ccc2-c2ccc(F)cc2)cc1,i
CCc1ccc2c(c1)C(NC(C)=O)C(=O)N2CC (stereo not drawn),i
Cc1ccccc1OCCn1c(C(O)c2ccccc2)nc2ccccc21 (stereo not drawn),2.4%
COc1ccccc1NC(=O)CSc1nc2ccccc2c(=O)n1Cc1ccccc1,i
CC1=Nc2ccccc2N=C(N)C1c1ccc(Cl)cc1 (stereo not drawn),15µg/mL*
O=C(N1CCOCC1)C12CC3CC(C1)CC(c1ccccc1)(C3)C2,i
COc1ccc(SCCc2ccc(C)nc2)cc1,7.6%
COc1ccc(OC(C)C(=O)Nc2ccc(Oc3ccccc3)cc2)cc1 (stereo not drawn),i
CC(=O)c1cccc(NC(=O)N2CCN(c3ccccn3)CC2)c1,i
Cc1ccc(C(C)(C)C)c(OCCOCCN2CC(C)OC(C)C2)c1 (stereo not drawn),4.0%
COc1ccc(C(C)NC(=S)NCc2ccc(F)cc2)cc1OC (stereo not drawn),i
O=S(=O)(c1cccs1)N1CCN(c2ccc(F)cc2)CC1,i
COC(=O)c1c(NC(=S)NN2CCN(C)CC2)sc2c1CCC2,48.0%
CCCc1cc(=O)oc2cc(OCC=C(C)C)ccc12,i
CC12CC3CC(C)(C1)CC(C(=O)NC1=NCCS1)(C3)C2,13µg/mL*
COCCCNCCOc1ccc(Br)cc1Cl,i
COc1ccccc1OCC(=O)Nc1c[nH]c(=O)[nH]c1=O,i
O=c1[nH]c2ccc(Cl)cc2c(-c2ccccc2)c1S(=O)(=O)c1ccccc1,0.3%
Cc1ccc([N+](=O)[O-])cc1S(=O)(=O)NCc1ccc2c(c1)OCO2,i
CCN(CC)c1ccc(NC(=O)C(CC(=O)O)NCc2ccccc2)cc1 (stereo not drawn),i
Cc1cccc(NC(C)c2cc(Cl)ccc2O)c1C (stereo not drawn),i
N#Cc1cccc2c1-c1ccccc1C2=O,i

# Already shown: entries from further up.
Structure,Mtb growth
COCCCNCCOc1ccc(Br)cc1Cl,i
COc1ccccc1OCC(=O)Nc1c[nH]c(=O)[nH]c1=O,i
O=c1[nH]c2ccc(Cl)cc2c(-c2ccccc2)c1S(=O)(=O)c1ccccc1,0.3%
Cc1ccc([N+](=O)[O-])cc1S(=O)(=O)NCc1ccc2c(c1)OCO2,i
CCN(CC)c1ccc(NC(=O)C(CC(=O)O)NCc2ccccc2)cc1 (stereo not drawn),i
Cc1cccc(NC(C)c2cc(Cl)ccc2O)c1C (stereo not drawn),i
N#Cc1cccc2c1-c1ccccc1C2=O,i

# The list goes on.
Structure,Mtb growth
O=C(CSc1nc(N2CCCCC2)nc(N2CCCCC2)n1)Nc1ccc(Cl)cc1Cl,i
CCc1nc2ccc(I)cc2c(=O)n1-c1ccccc1F,2.9%
Cn1c(NCc2ccc(Cl)cc2)nc2ccccc21,i
O=C(CCc1ccccc1)Oc1ccc(NC2=NS(=O)(=O)c3ccccc32)cc1,i
CCOc1ccccc1NS(=O)(=O)c1ccc2c(c1)OCCO2,i
COc1ccccc1NC(=S)N1CCc2ccccc2C1,i
CCOc1cc2nccnc2cc1OCC,i
O=C(OCc1nnc(-c2ccccc2)o1)c1cnccn1,i
COC(=O)c1c(-c2ccc(C)cc2C)csc1NC(=O)c1ccc([N+](=O)[O-])cc1,i
CC1CC(C)CN(CCOc2ccccc2-c2ccccc2)C1 (stereo not drawn),8.8%
O=C(O)C1CCCCC1C(=O)NCCc1cccc(Cl)c1 (stereo not drawn),i
COc1ccc(CCn2c(-c3ccc(C)cc3)nc3ccccc3c2=O)cc1OC,i
COc1ccc(S(=O)(=O)N(CC(=O)N(C)C)c2ccc(F)cc2)cc1OC,1.7%
COc1cc(OC)cc(C(=O)N/C(=N/c2nc(C)cc(C)n2)Nc2ccc(F)c(Cl)c2)c1,i
COc1ccc(NC(=O)c2ccc(OC)c(Cl)c2)c(OC)c1,i
CCOC(=O)c1cnn(-c2nc3ccccc3s2)c1-c1cc(F)c(F)c(F)c1F,i
Cc1cc(C)cc(C(=O)NCc2ccc3c(c2)OCO3)c1,i
COc1ccc(NC(=S)N2CCC(Nc3ccc(F)cc3)CC2)cc1,1.7%
COc1ccccc1N1CCN(CCC(=O)Nc2ccccc2F)CC1,i
CS(=O)(=O)NCc1ccc2c(c1)OCO2,i
CC(=O)c1cccc(NC(=O)NCCc2ccc(F)cc2)c1,i
COc1ccc(NC(=S)NC(=O)c2ccc(Br)o2)cc1[N+](=O)[O-],i
Cc1cccc(Nc2nc(C)cc(C)n2)c1,i
Cc1c(NC(=O)CN2C(=O)C3C4C=CC(C4)C3C2=O)ccc(Br)c1Cl (stereo not drawn),5.7%
COc1ccccc1C(=O)NC(C)C1CCCO1 (stereo not drawn),i
COc1ccccc1CC(=O)Nc1cc(OC)c(OC)cc1C(=O)O,i
COC(=O)C1CC(=O)N(c2ccc(C)cc2)C1 (stereo not drawn),i

# Screens from PubChem BioAssay.
